Source: PubChem BioAssay
miR-21 reporter – qHTS Assay for Modulators of miRNAs and/orActivators of miR-21; HeLa miR-21 FLuc reporter, luciferase, 48 h; Potency, µM (top dose mostly 38.3 µM), for inactives: top-dose reporter change, positive = more light; 340,000 tested, under 10 active; active = well fitted rising curve with a large enough effect; inconclusive = small, poorly fitted or top-dose-only effect; inactive = no such curve, though single readings can be large or run the other way;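 note: % of control where 0% means no effect; miR-21 action dims this reporter so a rising signal means less miR-21 action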
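Luminescence from a firefly luciferase reporter carrying a miR-21 binding site downstream, stably expressed under a CMV promoter in HeLa cells that make miR-21 endogenously, reports miRNA modulation after 48 h compound exposure up to approximately 40uM final.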
* hit, by the source's call; ? = inconclusive.

miR-21 reporter,smiles
-12%,O=C(Nc1ccc2nc(SCCOc3ccccc3Cl)sc2c1)c1ccc2c(c1)OCO2
-3%,Cc1ccc(/C=C/c2onc(C)c2S(=O)(=O)N2CCC(C(=O)NCc3ccc(Cl)cc3)CC2)cc1
22%,Cc1ccc(N(C(=O)c2cccc(C)c2)S(=O)(=O)c2ccc(Cl)cc2)cc1
-1%,CCOC(=O)c1[nH]c(C)c(CCC(=O)NC(C)c2ccccc2)c1C (stereo not given)
13%,COc1ccc(C(=O)NCc2ccc3c(c2)CCN3C(=O)c2cccc(C)c2)cc1OC
4%,CCc1nnc(SCc2nc(-c3ccccc3Cl)oc2C)c2cc3sc(C)cc3n12
-59%,O=C(NCC(c1cccnc1)N1CCN(Cc2ccccc2)CC1)C(=O)Nc1ccc(F)cc1 (stereo not given)
-3%,Cc1ccccc1OCC(=O)Nc1ccccc1C(=O)OCc1cc(=O)n2nc(C3CC3)sc2n1
15%,COc1cccc(CNC(=O)CN(C)S(=O)(=O)c2ccc3[nH]c4c(c3c2)CCCC4)c1
-2%,CC1CCN(C(=O)Cn2ncc3c4ccccc4n(Cc4ccc(Cl)cc4)c3c2=O)CC1
-2%,CCOc1ccc(CCNC(=O)CCc2c(C)nc3c(c(C)nn3-c3ccccc3)c2C)cc1OCC
-3%,CC(C)CC(NC(=O)C1CCCCC1)C(=O)Nc1cccc(C(F)(F)F)c1 (stereo not given)
0%,COc1ccc(-c2nnc(SCC(=O)N3CCc4ccccc43)o2)cc1OC
-6%,COc1cccc(C(C(=O)NCc2ccccc2)N(C(=O)Cn2nnc3ccccc32)c2cccc(C(C)=O)c2)c1 (stereo not given)
0%,Cc1c(Cl)cccc1NC(=O)c1cnc2sc(N3CCCC3)nn2c1=O
-6%,COc1ccc(Nc2cc(C(=O)NCc3ccccc3)c3ccccc3n2)cc1
-1%,COc1cccc(-c2cc(C(F)(F)F)n3nc(C)c(-c4ccccc4)c3n2)c1
24%,O=C(NCc1ccccc1)c1ccc2c(c1)N(Cc1ccc(F)cc1)CCS2
-22%,CCCCC(=O)Nc1cccc(OCc2cc(=O)n3ccccc3n2)c1
16%,COc1ccccc1Cn1ccn(Cc2ccc(C)cc2)c(=O)c1=O

Reformatted with tabs: part of the list above.
structure	miR-21 reporter
COc1ccc(-c2nnc(SCC(=O)N3CCc4ccccc43)o2)cc1OC	0%
COc1cccc(C(C(=O)NCc2ccccc2)N(C(=O)Cn2nnc3ccccc32)c2cccc(C(C)=O)c2)c1 (stereo not given)	-6%

The listing continues:
miR-21 reporter,smiles
-29%,COc1cccc(CC(=O)NCc2ccc3c(c2)CCN3C(C)=O)c1
-11%,COc1ccc(OC)c(NC(=O)c2ccc3nc(C(C)C)oc3c2)c1
30%,Cc1c2cnn(-c3ccccc3)c(=O)c2c(C)n1CC(=O)N1CCN(c2cccc(Cl)c2)CC1
-28%,O=C(NCc1ccccc1)c1ccc2nc(CCc3ccccc3)oc2c1
1%,CCC(=O)N1CCc2cc(Br)cc(S(=O)(=O)CCC(=O)NCc3ccccc3)c21
?,COc1cc(C2c3c(-c4ccccc4O)n[nH]c3C(=O)N2Cc2ccco2)ccc1OCC(C)C (stereo not given)
21%,O=C(Nc1cccc(C(F)(F)F)c1)C1CCCN1S(=O)(=O)c1cccc2nsnc12 (stereo not given)
-6%,CC(C)CCn1c(SCc2ccc(F)cc2Cl)nc2ccsc2c1=O
0%,CCOc1ccccc1NC(=O)N(Cc1ccc(C)o1)C1CCN(C(C)=O)CC1
0%,Cc1ccc(-c2nn(-c3cccc([N+](=O)[O-])c3)c3c2cnc2ccc(F)cc23)cc1
-10%,COCCNC(=O)c1cccc(Nc2nc3ccccc3n3nnnc23)c1
21%,COc1ccccc1CNC(=O)CSc1nc2nc(C)c(Cc3ccccc3C)c(C)n2n1
27%,CCCc1cc(N2CCN(c3ccccc3)CC2)n2cnnc2n1
12%,CC(C(=O)Nc1ccccc1C(F)(F)F)n1nc(-c2ccccc2)c2c(c1=O)CCCC2 (stereo not given)
2%,COC(=O)c1ccc(C(=O)OC)c(NC(=O)c2c(-c3ccccc3)noc2C)c1
7%,COc1cc(NC(=O)CSc2nccn2C)cc(OC)c1OC
17%,O=C(COc1ccccc1)Nc1nnc(SCc2cc(=O)c3ccccc3[nH]2)s1
28%,CCOc1ccc(N(CC)C(=O)CSc2n[nH]c(-c3ccccc3)n2)cc1
-12%,CN(C)c1ccc(C(=O)Nc2cccc(-c3nc4cccnc4s3)c2)cc1
2%,COc1ccc(N2CCN(C(=O)c3ccc(C)c(NC(=O)c4nsc5ccccc45)c3)CC2)cc1

Overlap with the part before: 4 entries; new compounds follow.
miR-21 reporter,smiles
17%,O=C(COc1ccccc1)Nc1nnc(SCc2cc(=O)c3ccccc3[nH]2)s1
28%,CCOc1ccc(N(CC)C(=O)CSc2n[nH]c(-c3ccccc3)n2)cc1
-12%,CN(C)c1ccc(C(=O)Nc2cccc(-c3nc4cccnc4s3)c2)cc1
2%,COc1ccc(N2CCN(C(=O)c3ccc(C)c(NC(=O)c4nsc5ccccc45)c3)CC2)cc1
3%,O=C(CCn1c(=O)c2cccn2c2cccnc21)NCc1cccc(Br)c1
4%,CCOC(=O)c1ccc(NC(=O)CSc2cc(=O)n(CC)c3ccccc23)cc1
-2%,CCOc1ccccc1NC1(c2ccccc2)C(=O)c2ccccc2C1=O
-12%,Cc1cccn2cc(-c3cccc(NS(=O)(=O)c4ccc(Cl)c(Cl)c4)c3)nc12
-16%,Cc1ccc2c(=O)cc(C(=O)N(Cc3ccc(N(C)C)cc3)C3CCS(=O)(=O)C3)oc2c1 (stereo not given)
9%,CCCCS(=O)CC(O)CSc1nc(-c2ccc(OC)cc2)cc(-c2ccccc2)c1C#N (stereo not given)
24%,O=C(NCCCN1CCN(c2cccc(Cl)c2)CC1)c1nnc(Cc2ccc(F)cc2Cl)o1
?,CCOc1ccc(N(C(=O)CC(C)C)S(=O)(=O)c2ccc3c(c2)oc(=O)n3C)cc1
9%,CCc1ccccc1NC(=O)C(=O)NCCCN1CCOCC1
0%,CCN(C(=O)Cn1c(SCC(=O)Nc2ccc(OC)cc2)nc2ccccc21)c1cccc(C)c1
15%,COc1ccc(OC)c(C2C(C(=O)Nc3ccccc3OC)=C(C)Nc3c(C(=O)Nc4ccc(F)cc4)cnn32)c1 (stereo not given)
12%,Cc1sc2ncn(CC(=O)Nc3ccc(C(F)(F)F)cc3)c(=O)c2c1S(=O)(=O)N1CCN(C)CC1
6%,Cc1cc(N2CCC(C(=O)Nc3ccc(Cl)cc3)CC2)n2nc(C)c(-c3ccc(Cl)cc3)c2n1
-5%,Cc1cccc(NC(=O)N2CC(=O)Nc3sc4c(c3C2c2ccccc2)CCCC4)c1C (stereo not given)
-6%,CCC(=O)N1CCc2cc(S(=O)(=O)NC(CC(C)C)C(=O)NCc3ccc(F)cc3)ccc21 (stereo not given)
15%,COc1cccc(C(=O)Nc2nc(-c3nnn(-c4cccc(Cl)c4C)c3C)ns2)c1
20%,O=C(Nc1ccc(F)c(Cl)c1)C1CCN(S(=O)(=O)c2ccc3[nH]c(=O)ccc3c2)CC1
-3%,COc1ccccc1C(=O)Nc1cccc(C(=O)OCc2cc(=O)n3nc(C4CC4)sc3n2)c1
2%,Cc1ccc(COC(=O)c2ccc(-c3nnn(Cc4ccc(C)cc4)n3)cc2)cc1
-4%,Cc1cc(C)cc(C(=O)Nc2nnc3n2CCS3)c1
-4%,Cc1ccc(CNC(=O)c2cnn3c(C)c(Cc4c(F)cccc4Cl)c(C)nc23)cc1
-2%,CCOC(=O)CSc1nc2sc3c(c2c(=O)n1-c1ccc(OC)cc1)CC(C(C)C)OC3 (stereo not given)
-1%,COc1ccc(OC)c(NC(=O)c2cnn(-c3ccc(C)cc3)c2C2CCNCC2)c1
-24%,CCCCCSc1nnc2c(n1)[nH]c1c(C)cccc12
-4%,COc1ccc(CCC(=O)NC2CC(=O)N(c3ccc(C)c(C)c3)C2)cc1 (stereo not given)
-7%,Brc1cccc(-c2nnn3c2nc(NC2CCCCC2)c2ccccc23)c1
1%,CC(C)(C)C1CCc2onc(C(=O)Nc3sc4c(c3C(N)=O)CCCC4)c2C1 (stereo not given)
-11%,Cc1nn(CC(=O)N2CCC(C)CC2)c(=O)c2cc3sccc3n12
-35%,Cc1ccc(-n2nc3ccc(NC(=O)c4cc5ccccc5o4)cc3n2)cc1
11%,COc1ccc(N2CC(NC(=O)/C=C\c3ccc4c(c3)OCO4)CC2=O)cc1 (stereo not given)
?,CCCCNc1oc(-c2ccc(COc3ccccc3C)o2)nc1C#N
13%,COC(=O)c1ccc(NC(=O)N2CCC(CN3CCc4ccccc4C3)CC2)cc1
-12%,c1ccc(-c2nnc(CN3CCN(c4ccccn4)CC3)o2)cc1
-4%,CCOC(=O)c1ccc(NC(=O)C(CC)Sc2nnc3c4ccccc4n(C)c3n2)cc1 (stereo not given)
5%,Cc1coc2cc3oc(=O)c(CCC(=O)NCc4ccccc4Cl)c(C)c3cc12
-33%,CCc1cc(C(=O)NCc2ccc(F)cc2)no1
1%,Clc1cccc(-c2csc(-c3nc(-c4ccc(Br)s4)cs3)n2)c1
3%,Cc1cc(C)n(-c2nc(C)c(C)c(=O)n2CC(=O)Nc2ccc(Cl)c(Cl)c2)n1
-49%,O=C(Nc1ccccc1C(F)(F)F)c1noc2c1CCCCC2
11%,CSc1ncc(C(=O)N2CCN(c3cc(Cl)ccc3C)CC2)c(C)n1

4 of the entries above in order of the miR-21 reporter value, descending:
molecule	miR-21 reporter
Cc1ccc(COC(=O)c2ccc(-c3nnn(Cc4ccc(C)cc4)n3)cc2)cc1	2%
COc1ccc(CCC(=O)NC2CC(=O)N(c3ccc(C)c(C)c3)C2)cc1 (stereo not given)	-4%
Cc1cccc(NC(=O)N2CC(=O)Nc3sc4c(c3C2c2ccccc2)CCCC4)c1C (stereo not given)	-5%
CC(C)CCn1c(SCc2ccc(F)cc2Cl)nc2ccsc2c1=O	-6%

(cont.)
miR-21 reporter,smiles
-3%,O=C(Cn1c(=O)nc(-c2ccccc2)c2ccccc21)NCc1ccc(Cl)cc1
-1%,Cc1cccc(CNC(=O)CN2C(=O)CCCc3ccccc32)c1
-9%,CCCCNc1nc2c(-c3cccc(Br)c3)nnn2c2ccccc12
-5%,CCOC(=O)CSc1nc2c(sc3cccc(F)c32)c(=O)n1Cc1ccc(OC)cc1
-2%,CCc1nnc(NC(=O)c2nc(SCc3cccc(C)c3)ncc2Cl)s1
?,CCCOc1cccc(C2c3c(-c4ccccc4O)n[nH]c3C(=O)N2Cc2ccco2)c1 (stereo not given)
18%,CCOc1ccc(CN2CCN(Cc3ccc4c(c3)c3ccccc3n4CC)CC2)cc1
-13%,COc1ccc(C(=O)N(Cc2cc(OC)c(OC)c(OC)c2)C2CCS(=O)(=O)C2)cc1Cl (stereo not given)
-1%,Cc1cccc(C(=O)Nc2nc(-c3nnn(-c4cc(F)ccc4F)c3C)ns2)c1
5%,Cc1ccc(NC(=O)CSc2nc3ccccc3c(=O)n2CCC(=O)NC2CCCCC2)cc1C
-37%,CCCC(=O)Nc1ccc(NC(=O)c2sc3ccccc3c2Cl)cc1
-1%,Cc1cn2c(=O)c(S(=O)(=O)Nc3ccc(N4CCOCC4)cc3)c(C)nc2s1
1%,O=C(NCc1ccccc1Cl)c1cnc2sc(N3CCOCC3)nn2c1=O
-7%,CCOc1ccc(CCNc2nc3c(-c4ccc(C)cc4)nnn3c3ccccc23)cc1OCC
0%,COc1cc2nc(NCCC(C)C)n3nc(-c4ccccc4)nc3c2cc1OC
?,Cc1ccc(CNC(=O)c2oc3ccc(S(=O)(=O)N4CCC(C)CC4)cc3c2C)cc1
-5%,CCOc1ccc(NC(=O)Cn2c(=O)n(CC3CCC(C(=O)NCCc4ccccc4)CC3)c(=O)c3ccccc32)cc1 (stereo not given)
-24%,O=C(c1ccccc1)n1nc(-c2ccccc2)nc1NCc1ccc(F)cc1
2%,Cc1ccc2c(c1)Cc1c(nc(-c3ccc(F)cc3)nc1SCC(=O)N1CCCCC1)O2
0%,CCC(=O)N1CCc2cc(Br)cc(S(=O)(=O)N3CCN(c4ccc(C(C)=O)cc4)CC3)c21
-12%,Cc1cccc(C)c1Nc1c(-c2ccsc2)nc2cccc(C)n12
-9%,CC(=O)Nc1nonc1-c1nnc(SCC(=O)Nc2ccccc2Cl)n1C
1%,Cc1ccc(NC(=O)C2CCN(c3nn4c(=O)cc(C)nc4s3)CC2)cc1
-27%,Cc1ccc2nc(-c3cc(NC(=O)c4ccc5c(c4)OCCO5)ccc3Cl)oc2c1
-6%,COc1ccc(-c2nc(CCNC(=O)c3cccs3)cs2)cc1OC
-3%,Cc1ccc(NC(=O)C(=O)NCC(c2ccc3c(c2)OCO3)N2CCOCC2)c(C)c1 (stereo not given)
?,CCCN1C(C(=O)c2ccccc2)=C(OC(=O)COc2ccccc2)c2ccccc2S1(=O)=O
-50%,CCOc1ccc(-c2nnc(SCC(=O)Nc3cc(C)ccc3OC)o2)cc1
-2%,COc1ccc(-c2cc(C(F)(F)F)nc(SCCC(=O)Nc3ccc(O)cc3)n2)cc1
3%,Cc1ccc(-c2nnc(Nc3ccc(O)cc3)c3ccccc23)cc1S(=O)(=O)N1CCCCC1
3%,COc1ccc(OC)c(NC(=O)c2cc(CN3CCCC3)on2)c1
5%,COC(=O)c1ccc(OCC2c3cc(OC)c(OC)cc3CCN2C(=O)Cc2ccc(OC)cc2)cc1 (stereo not given)
5%,CCOC(=O)c1ccc(CN(Cc2ccc(F)cc2)S(=O)(=O)c2ccc(F)c(C(=O)Nc3c(C)cccc3C)c2)cc1

Structural class, the entries above containing a cyano group (two)
miR-21 reporter,smiles
9%,CCCCS(=O)CC(O)CSc1nc(-c2ccc(OC)cc2)cc(-c2ccccc2)c1C#N (stereo not given)
?,CCCCNc1oc(-c2ccc(COc3ccccc3C)o2)nc1C#N

The list is partial; the hit share may differ from the screen's.
